# Bioassay records (PubChem BioAssay)
# GIV-Gai inh – inhibitors of GIV peptide binding to Galpha-i3, primary screen, biochemical, fluorescence polarization, FITC-GIV GBA peptide, rat Galphai3; Guanine nucleotide-binding protein G(i) subunit alpha-3 (Rattus norvegicus), P08753; 90 min; active compounds read low; scaled: aluminum fluoride 0%, vehicle 100%; percent of control (FP), % (no concentration beside the values); 0.42% of 210,000 active; AID 1224905, 2016;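 active = replicate mean at 85% of control or lower, very high polarization wells dropped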;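 also: wells of about 15 µL received 100 nL stock; the first replicate is given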
# Target sequence (P08753 whole entry, looked up): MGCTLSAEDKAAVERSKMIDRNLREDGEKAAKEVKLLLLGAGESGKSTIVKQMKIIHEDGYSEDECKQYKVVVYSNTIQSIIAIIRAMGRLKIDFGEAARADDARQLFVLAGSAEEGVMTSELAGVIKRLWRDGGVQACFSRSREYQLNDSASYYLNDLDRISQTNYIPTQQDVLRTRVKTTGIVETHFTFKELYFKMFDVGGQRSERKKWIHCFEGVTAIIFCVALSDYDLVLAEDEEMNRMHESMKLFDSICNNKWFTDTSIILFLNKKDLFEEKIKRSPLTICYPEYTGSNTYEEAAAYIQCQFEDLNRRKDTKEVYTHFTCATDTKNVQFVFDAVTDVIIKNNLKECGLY
# HCMV NEC inh – inhibitors of HCMV UL50-UL53 interaction, biochemical, HTRF; 0.15% of 190,000 active; HCMV UL50-UL53 nuclear egress complex (human cytomegalovirus); normalized percent inhibition; inhibition, % (no concentration beside the values);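 active = both replicates at 50% or more, plus weaker picks with an unusually low signal ratio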;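 also: stock transfer was 100 nL into about 20 µL; 0% = negative control wells and 100% = wells with untagged competitor protein; inactives centre near -12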
# Sa growth inh – S. aureus growth inhibition at 42 and 30 °C, primary screen, LtaS inhibitor project, RN4220, two temperatures; OD600, 20 h, 42 °C; active compounds read low; relative growth, % (concentration not given with the values); 0.53% of 170,000 active; AID 720641, 2013;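 active = growth at 42 °C up to 50% and 20 or more points under that at 30 °C, or under 10% at both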;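 also: 300 nL library stock went into each well; scaled to the means of positive and negative controls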
# Sa growth inh second temp – also measured in Sa growth inh; calls as there; relative growth, %; measured here: growth at 30 °C;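 optical density after 20 h as mean of two plates; 100% = untreated growth and lower means inhibition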
# Numbers without * were called inactive; · = not tested or not shown; & = joins results of further samples. Not a hit list. Share with any hit: about 0.83%.
SMILES	HCMV NEC inh	GIV-Gai inh	Sa growth inh second temp	Sa growth inh
Oc1c(C(c2ccncc2)N2CCCC2)ccc2cccnc12 (stereo not given)	·	101	55	66
CSc1nc(-c2ccc(Cl)cc2)nc(N)c1-c1ccccc1	-25	100	86	96
CC(C)(C)OC(=O)N1CCC(c2c(C(=O)N3CCN(c4ccccc4F)CC3)cnn2C(C)(C)C)CC1	·	104	99	111
O=C(c1cnc2ccc(F)cc2c1Nc1ccc2c(c1)OCO2)N1CCCCC1	-4	101	·	·
c1ccc(CN2CCCCC2)cc1	13	·	104	113
CCCn1c2ccccc2c2cnn(CC(=O)NCc3cccnc3)c(=O)c21	-27	109	89	107
Cc1ccc(CNC(=O)CCC(=O)N2CC=C(c3c[nH]c4ccccc34)CC2)cc1	4	102	·	·
COc1ccc(Nc2nc(N)nc(CN3CCCCC3)n2)cc1	·	103	90	89
CCN(CC)S(=O)(=O)c1ccc2c(c1)c(=O)c(C(=O)N1CCN(c3cccc(C)c3)C(C)C1)cn2C (stereo not given)	4	102	94	104
O=C(NC1CCCC1)c1cc(-c2ccco2)on1	-2	103	89	98
Cc1cn2c(=O)c(S(=O)(=O)NCCc3ccc(Cl)cc3)c(C)nc2s1	·	108	84	130
COc1cc(OC)cc(C(=O)Nc2ccc(S(=O)(=O)Nc3cc(C)nc(C)n3)cc2)c1	-40	106	100	97

# New compounds follow.
SMILES	HCMV NEC inh	GIV-Gai inh	Sa growth inh second temp	Sa growth inh
COc1cccc(-n2c(C)c3c(OC)cccc(=O)c3c2C)c1	-34	113	59	85
COc1cccc(CCNC(=O)Cn2c(=O)c(=O)n(Cc3ccc(Cl)cc3)c3ccccc32)c1	-14	101	·	·
COC(=O)C1=C(c2ccccc2)c2ccccc2S(=O)(=O)N1CC(=O)Nc1ccc(F)c(F)c1	-1&-27	104&102	86	93
CCOC(=O)c1ccc(NC(=O)C2=Cc3cc(C)ccc3OC=C2)cc1	-13	102	·	·
COc1ccc(-c2nc(CS(=O)(=O)CC(=O)NCc3ccccc3Br)c(C)o2)cc1	-16	102	95	98
CC(=O)c1cc(C#N)c(SCCCCSc2nc(C)c(C(C)=O)cc2C#N)nc1C	-10	105	·	·
Cc1ccccc1Cn1nnc2sc3c(c2c1=O)CCCC3	-35	100	98	117
CCN(CC)P(=O)(Nc1ccccc1Br)c1ccc(N(C)C)cc1NC(=O)c1ccco1 (stereo not given)	-22	·	95	69
CCS(=O)(=O)c1ccccc1C(=O)Nc1nc(-c2ccc3c(c2)OCCO3)cs1	-39	103	84	87
CSc1nsc2nc(=O)c(/C=C3\C=CC(=O)C(O)=C3)c(N)n12	-60	267	51	81
O=C(Nc1ccc2c(c1)OCO2)C1CC(=O)N(CCc2c[nH]c3ccc(F)cc23)C1 (stereo not given)	0	108	·	·
CC(C)(C)c1cc(CN2CCOCC2)c(C(=O)O)o1	-8	103	91	100

# Random excerpt: 2 compounds from above.
SMILES	HCMV NEC inh	GIV-Gai inh	Sa growth inh second temp	Sa growth inh
CCN(CC)P(=O)(Nc1ccccc1Br)c1ccc(N(C)C)cc1NC(=O)c1ccco1 (stereo not given)	-22	·	95	69
O=C(Nc1ccc2c(c1)OCO2)C1CC(=O)N(CCc2c[nH]c3ccc(F)cc23)C1 (stereo not given)	0	108	·	·

# Next compounds:
SMILES	HCMV NEC inh	GIV-Gai inh	Sa growth inh second temp	Sa growth inh
O=S(=O)(c1ccc2nnn(OCc3cccc(F)c3)c2c1)N1CCCCC1	-21	·	95	96
CCCCn1c(N)c(N(CCOC)C(=O)CN2CCCCCC2)c(=O)[nH]c1=O	8	·	95	110
COc1cccc2c1OC1=C(C(=O)CCC1)C2C1=C(O)CCCC1=O (stereo not given)	0	108	102	88
C/C(=N\N)c1cccs1	-5	·	83	92
COc1cc2nc(CNc3ccc(C)cc3)[nH]c(=O)c2cc1OC	-9	·	85	96
CCN1CCN(C(=O)c2cccc(Nc3nc4ccccc4n4nnnc34)c2)CC1	·	111	71	79
CCc1cc(=O)oc2c(C)c(OCC(N)=O)ccc12	·	97	82	88
CN1/C(=C2/S/C(=N\c3ncn[nH]3)N(Cc3ccccc3)C2=O)Sc2ccccc21	2	121	105	86
O=C(Cc1ccccc1)NC1CC(=O)N(c2ccccc2)C1 (stereo not given)	·	97&107	90	87
C=CCN(CC=C)C(=O)CSc1nnc(N)s1	-18	108	103	103
CC1=C(C(=O)N2CCCCC2)C2(CCCCC2)OC1=O	·	96	84	73
COC(=O)c1ccc(C(=O)OC)c(NC(=O)c2c(-c3ccccc3)c(-c3ccccc3)nn(C)c2=O)c1	-30	98	83	102

# 3 entries already listed, ordered by the number in Sa growth inh second temp, low to high:
Compound | Sa growth inh second temp
CSc1nc(-c2ccc(Cl)cc2)nc(N)c1-c1ccccc1 | 86
O=C(NC1CCCC1)c1cc(-c2ccco2)on1 | 89
O=C(Cc1ccccc1)NC1CC(=O)N(c2ccccc2)C1 (stereo not given) | 90

# The results go on.
SMILES	HCMV NEC inh	GIV-Gai inh	Sa growth inh second temp	Sa growth inh
COc1ccc(-n2nc(C(=O)Nc3ccc(Cl)cn3)c3c4ccccc4n(C)c3c2=O)cc1Cl	-15	100	92	110
COc1ccc(OC)c(C2C(C(=O)Nc3ccccc3)=C(C)Nc3ncnn32)c1 (stereo not given)	-19	104	·	·
CCC(=O)Nc1cccc(NC(C)=O)c1	-11	107	111	106
CC1(C(=O)NC2CCCCC2)Cn2c(cc3sccc32)C(=O)N1Cc1ccc(Cl)cc1 (stereo not given)	-22	100	·	·
CC(C)(C)C(=O)NC1CCN(S(=O)(=O)c2ccc(C(F)(F)F)cc2)CC1	3	106	98	96
COc1ccc(-n2nc(C(=O)Nc3cc(C)on3)c3c4ccccc4n(C)c3c2=O)cc1Cl	·	101	81	103
O=C(NCc1cccn1Cc1cccc(F)c1)NCC1CCCO1 (stereo not given)	7	105	·	·
COc1ccc(N2CCN(C(=O)c3cc4c(s3)-c3ccccc3OC4)CC2)cc1	2	103	108	89
CC(=O)N1c2ccccc2C(=O)C1NC(N)=S (stereo not given)	·	99	86	106
COc1c(C)cnc(Cn2cnc3oc(C)c(C)c3c2=O)c1C	-4	106	·	·
O=C(NC1CCCCCC1)C1CC1	-20	·	83	92
Cc1ccccc1OCc1nnc2c3cnn(Cc4ccccc4)c3ncn12	-22	102&96	96	94

# Structural class, the compounds so far containing a thiophene ring, fused or not.
SMILES	HCMV NEC inh	GIV-Gai inh	Sa growth inh second temp	Sa growth inh
Cc1ccccc1Cn1nnc2sc3c(c2c1=O)CCCC3	-35	100	98	117
C/C(=N\N)c1cccs1	-5	·	83	92
CC1(C(=O)NC2CCCCC2)Cn2c(cc3sccc32)C(=O)N1Cc1ccc(Cl)cc1 (stereo not given)	-22	100	·	·
COc1ccc(N2CCN(C(=O)c3cc4c(s3)-c3ccccc3OC4)CC2)cc1	2	103	108	89

# Other compounds:
SMILES	HCMV NEC inh	GIV-Gai inh	Sa growth inh second temp	Sa growth inh
CCOC(=O)C1=C(N)OC2=C(C(=O)CC(c3ccccc3)C2)C1c1ccc(F)cc1 (stereo not given)	-1	111	·	·
CC1Cc2ccccc2N1S(=O)(=O)/C=C/c1ccccc1 (stereo not given)	-5	·	97	92
Cc1nc(SCC(=O)Nc2ccccc2F)[nH]c(=O)c1Cc1ccccc1	-2	107	90	104
CN1C(=O)N(C)C(=O)C(CC(=O)N2CCCCC2)(CC(=O)N2CCCCC2)C1=O	-29	104	75	92
Cn1nc(C(=O)Nc2cccnc2)c2c1-c1ccccc1SC2	·	103	79	87
COc1cccc(OCc2nn3c(-c4ccoc4C)nnc3s2)c1	2	112	·	·
Cc1cc(C)cc(OCC(=O)Nc2ccc(-c3nc4ccccc4o3)cc2)c1	-3	102	93	101
CC(C)COc1ccccc1OCC(C)C	-6	103	59	53
CC1CC(=O)Nc2ccccc2N1C(=O)c1ccccc1F (stereo not given)	-3	96	·	·
O=C(COc1ccccc1O)NCc1ccccc1Cl	-1	103	97	102
CCn1c2c(c(=O)[nH]c1=O)C(c1ccc(C)cc1)C1=C(CC(C)(C)CC1=O)N2 (stereo not given)	-42	101	87	77
CSc1nnc(Cc2ccccc2)n1-c1ccc(C)cc1	-4	100	103	129

# (continued)
SMILES	HCMV NEC inh	GIV-Gai inh	Sa growth inh second temp	Sa growth inh
Cc1noc2ncn(CC(=O)NC3CC3)c(=O)c12	-11	95	95	88
CCOC(=O)c1cc2sccc2n1Cc1ccccc1	-17	99	94	87
Cc1ccc(-c2nc(SCc3cc(=O)n4nc(C5CC5)sc4n3)n3[nH]c(=O)cc3n2)cc1	-25	101	·	·
CCCC(C(=O)O)N1C(=O)/C(=C/c2ccc[nH]2)SC1=S (stereo not given)	-104	171	75	75
O=C(O)CN=Cc1ccccc1O	8	·	98	108
CC(C)N1C(=O)C2ON(c3ccc(Cl)cc3)C(c3ccccc3)C2C1=O (stereo not given)	-10	101	92	98
Cc1cc(C)cc(C(=O)N2CC(=O)Nc3ccc(C)cc3C2c2ccccc2)c1 (stereo not given)	-42	102	85	90
COc1ccc(C2=NN(C(=O)CN3CCCCC3)C(c3ccc(OC)cc3)C2)cc1 (stereo not given)	-8	107	92	99
CC(=O)Nc1ccc(S(=O)(=O)N2CCCCC2)cc1	-5	·	87	99
c1ccc(N(c2ccccc2)c2nc(N3CCCCC3)nc(N3CCOCC3)n2)cc1	-11	94	89	91
O=C(CSC1=NCCS1)Nc1ccc(Cl)cn1	-12	·	82	97
Cc1nnc(SCC(=O)c2ccc(O)c(O)c2)s1	-33	103	76	100

# Going on with the list.
SMILES	HCMV NEC inh	GIV-Gai inh	Sa growth inh second temp	Sa growth inh
c1ccc(Cc2nn3c(Cn4cnc5ccccc54)nnc3s2)cc1	·	104	84	103
Cc1ccc2c(c1)c1c(c(=O)n(Cc3ccccc3)c(=O)n1Cc1cccc(C(F)(F)F)c1)n2C	·	106	92	137
CCOc1ccccc1-n1nnnc1SCC(=O)c1cc(Cl)ccc1OC	11	103	77	88
C=CCNc1nc(C(C)C)nc2c1nnn2Cc1ccccc1	0	102	89	95
O=C(NCc1ccc(F)cc1)c1cc(Sc2ccc(F)cc2F)nc2ccccc12	·	99	82	138
CCc1ccc(NC(=O)CSc2ncc(S(=O)(=O)c3cc(C)ccc3C)c(=O)[nH]2)cc1	-23	108	89	106
O=C(CSc1ncccn1)NC1CCCc2ccccc21 (stereo not given)	5	·	99	98
O=C1CCc2cc(S(=O)(=O)NC(C(=O)NCc3ccccc3)c3ccccc3)ccc2N1 (stereo not given)	2	108	98	79
CCCn1nnc2cc(S(=O)(=O)N3CCCC(C(=O)NCc4ccccc4Cl)C3)ccc21 (stereo not given)	-7	105	·	·
COc1ccc(NC(=O)CN2C(=O)c3cccnc3Sc3ccccc32)cc1OC	-13	105&100	91	87
Cc1ccccc1NC(=O)CSc1ccc(-c2cccs2)nn1	·	102	105	129
O=[N+]([O-])c1c(Nc2ccccc2Cl)cc(N2CCOCC2)c2nonc12	-21	103	·	·

# Filtered by structure, the entries above containing a tert-butyl group
SMILES	HCMV NEC inh	GIV-Gai inh	Sa growth inh second temp	Sa growth inh
CC(C)(C)OC(=O)N1CCC(c2c(C(=O)N3CCN(c4ccccc4F)CC3)cnn2C(C)(C)C)CC1	·	104	99	111
CC(C)(C)c1cc(CN2CCOCC2)c(C(=O)O)o1	-8	103	91	100
CC(C)(C)C(=O)NC1CCN(S(=O)(=O)c2ccc(C(F)(F)F)cc2)CC1	3	106	98	96

# Later entries
SMILES	HCMV NEC inh	GIV-Gai inh	Sa growth inh second temp	Sa growth inh
CC1=N/C(=C/c2cccnc2)C(=O)O1	·	98	96	111
COc1ccc(OCCS(=O)(=O)c2nc3ccccc3[nH]2)cc1	-6	98	74	97
CC1=N/C(=C/c2cc(Br)cc(Br)c2O)C(=O)O1	-13	109	87	117
CCc1cnc2c(c1SCC(=O)N1CCC(C)CC1)c(=O)n(C)c(=O)n2C	·	104&99	87	158
Cc1[nH][nH]c(=O)c1C1(C(C#N)C#N)C2CC3CC(C2)CC1C3 (stereo not given)	-1	·	130	94
Cc1c(C(=O)O)oc2ccc(S(=O)(=O)N3CCC(C)CC3)cc12	-15	103	88	95
CCCC(=O)Oc1ccccc1NS(=O)(=O)c1ccccc1	-40	·	90	111
O=C(CCC1N=C2c3ccccc3N=C(SCc3ccccc3F)N2C1=O)NCc1ccccc1 (stereo not given)	·	101	88	88
CCOC(=O)Cn1c(=O)c(-c2cc(Br)ccc2N)nc2ccccc21	-2	108	·	·
CC(Oc1ccc(Br)cc1)C(=O)NCc1ccncc1 (stereo not given)	-11	99	90	106
COc1ccc(NC(=O)CCn2nc(-c3ccccc3OC)c3c(C)cc(C)nc32)cc1	-9	107	86	110
COc1ccc2[nH]c(C)c(CCN(Cc3cccs3)C(=S)NC3CCCCC3)c2c1	·	97	90	132
COC(=O)c1ccc2c(=O)n(CCCCCC(=O)NCc3ccccc3)c(=O)[nH]c2c1	·	101	74	135
O=C(O)/C=C1\OC(=O)c2ccccc21	-30	98	93	107
CC1CCCN(S(=O)(=O)c2ccc3[nH]c(=O)cc(C(=O)O)c3c2)C1 (stereo not given)	-16	95	95	100
